B2AR ag = agonists of human beta-2 adrenergic receptor inducing internalization; Am2.2-beta2AR cells, FAP receptor internalization, flow cytometry; reference of the scale not given here; response, % (test concentration not listed); hit rate 0.43% among 340,000; AID 504454;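 active means response above a set limit, near 3 SD of response in nonfluorescent compounds, cut at about 42% in these data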;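 further: stock transfer was 100 nL into about 11 µL; a reference agonist was the positive control; negative values mostly stem from fluorescent compounds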
HNF4A DNA FP = change in binding of human HNF4 alpha to DNA; P41235; HNF4a-FITC DNA binding, fluorescence polarization, 1 h; activity change, % at 10 µM; hit rate 0.3% among 360,000; AID 1224865; in the data active means activity change above about 30%, passing the limit was not always enough;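 further: controls were the assay level and a saturating level of protein; the project sought stronger binding though the title names inhibitors; some compounds called inactive have numbers as strong as hits; positive values seem to mean higher polarization but the record does not say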
Target sequence (P41235 whole entry, looked up): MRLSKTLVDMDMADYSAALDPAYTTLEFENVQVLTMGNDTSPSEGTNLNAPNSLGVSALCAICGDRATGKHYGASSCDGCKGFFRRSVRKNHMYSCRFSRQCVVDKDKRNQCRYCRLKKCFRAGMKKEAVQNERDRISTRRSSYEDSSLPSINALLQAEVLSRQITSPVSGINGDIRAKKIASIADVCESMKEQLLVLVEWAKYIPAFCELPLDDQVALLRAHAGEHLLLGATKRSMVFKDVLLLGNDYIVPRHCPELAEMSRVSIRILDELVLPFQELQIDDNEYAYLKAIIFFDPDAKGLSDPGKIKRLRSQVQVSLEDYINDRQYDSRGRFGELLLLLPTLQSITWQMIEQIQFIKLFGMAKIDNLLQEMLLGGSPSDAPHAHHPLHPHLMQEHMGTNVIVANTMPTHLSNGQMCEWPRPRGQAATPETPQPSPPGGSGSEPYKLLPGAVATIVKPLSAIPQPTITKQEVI
Ecoli growth = blocks Escherichia coli growth; OD600, 23 h; stronger effect = lower value; OD600 absorbance (test concentration not listed); hit rate 0.21% among 330,000;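 active means OD600 absorbance below the run mean of sample wells minus 3.6 SD, in any replicate, cut at about 0.56 in these data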;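 further: stock transfer was 300 nL into about 60 µL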
FGF22 binding = FGF22 (human) thermal shift binding | hit rate 1.5% among 340,000 | recombinant FGF22 thermal shift, SYPRO orange fluorescence; percent of sucrose octasulfate shift, DMSO zero | Q9HCT0 | calls only at 9.99 µM;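 active means melting point raised past a set limit in the mean and every replicate; inconclusive means no clear call; three in four hits are not shown here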
LANA-H2B inh = blocks KSHV LANA binding to histone H2A/H2B. cell-free LANA-H2A/H2B peptide, fluorescence polarization. inhibition, % (test concentration not listed). hit rate 0.6% among 320,000. AID 2629; in the data active means inhibition mostly above about 10%, no sharp cut-off; inactive means mostly below about 6.7%;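 further: stock transfer was 7.5 nL into about 10 µL; 0% = median of vehicle wells and 100% = median of positive control wells; one replicate is shown; the record names a cut of 25% in any replicate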
ALR H2O2 inh = human ALR oxidase inhibition via reduced H2O2. P55789. purified ALR, DTT oxidation, H2O2 HRP-luminol luminescence. inhibition, % (test concentration not listed). hit rate 3.8% among 290,000. AID 485317;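 active means mean and each replicate at 75% or more; inconclusive means only one of the two met; inactive means neither met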;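 further: stock transfer was 7.5 nL into about 7.5 µL; 0% = neutral wells and 100% = wells with inactivated enzyme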
Target sequence (P55789 whole entry, looked up): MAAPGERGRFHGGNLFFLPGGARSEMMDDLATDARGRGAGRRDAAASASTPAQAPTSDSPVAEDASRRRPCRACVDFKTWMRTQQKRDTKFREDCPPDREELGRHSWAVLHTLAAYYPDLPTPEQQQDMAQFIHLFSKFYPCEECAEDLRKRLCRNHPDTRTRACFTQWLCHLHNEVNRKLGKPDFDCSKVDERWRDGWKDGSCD
UCH37 inh = blocks the human deubiquitinase UCH37 | AID 588478 | hit rate 0.33% among 330,000 | purified proteasome/UCH37, Ub-AMC cleavage fluorescence | Q9Y5K5 | inhibition, % (test concentration not listed);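 active means mean of two replicates above 20%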;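 further: 0% = compound-free wells with enzyme and 100% = wells lacking proteasome; stock transfer was 100 nL into about 20 µL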
Target sequence (Q9Y5K5 whole entry, looked up): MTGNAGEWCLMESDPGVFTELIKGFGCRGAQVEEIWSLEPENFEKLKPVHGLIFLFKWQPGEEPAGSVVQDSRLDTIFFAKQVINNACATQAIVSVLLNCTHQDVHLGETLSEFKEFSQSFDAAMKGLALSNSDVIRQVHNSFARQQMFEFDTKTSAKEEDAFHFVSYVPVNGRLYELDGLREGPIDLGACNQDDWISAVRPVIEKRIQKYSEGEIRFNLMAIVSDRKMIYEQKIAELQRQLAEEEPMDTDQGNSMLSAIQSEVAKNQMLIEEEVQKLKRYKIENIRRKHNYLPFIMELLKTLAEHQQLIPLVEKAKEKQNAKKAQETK
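Material: Human UCH37 enzyme supplied as purified proteasome complex | Schedule: 30 min preincubation with enzyme, 25 min cleavage at room temperature | Detection: AMC fluorescence 355/460 nm | Measure: % inhibition of Ub-AMC cleavage fluorescence | Controls: Wells without proteasome as full block, compound-free enzyme plus substrate as uninhibited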
Active calls of the source: *; i = inactive; ? = inconclusive; . = not tested or not shown; + = active, no number. Only part of the results is shown (hit frequency here may not be typical).

Ecoli growth,B2AR ag,LANA-H2B inh,ALR H2O2 inh,molecule,HNF4A DNA FP,FGF22 binding,UCH37 inh
0.67,-6,5.0,-1,O=S(=O)(/C=C/c1ccccc1)N1CCNCC1,-4.0,i,1.7
0.76,1,2.6,1,Cc1ccc(C(O)(C(=O)NN(C(=O)c2ccccc2)c2ccccc2)c2ccc(C)cc2)cc1,-2.7,i,4.7
0.67,-9,-0.6,-4,COc1cccc(C(=O)Nc2ccc3c(c2)C(=O)N(CCC(=O)O)C3=O)c1,-0.7,.,0.5
0.63,1,1.2,8,CCOc1cc(-c2nc(C)c(C(C)=O)n2O)ccc1OCC(=O)Nc1ccc(F)cc1,-0.4,+,5.4
0.69,3,4.8,-7,Cc1ccc(C)c2[nH]c(=O)c(CCNC(=O)c3ccc(S(=O)(=O)N(C)C)cc3)cc12,0.6,i,4.3
0.74,6,0.8,-30,CCCCNC(=O)c1cn(-c2ccc(OCC)cc2)c(=O)c2cc(OC)c(OC)cc12,-0.8,.,3.1
0.72,3,-4.1,-5,O=C(COC(=O)c1ccccc1Nc1ccccc1F)c1ccccc1,-0.1,i,-3.1
.,1,-2.1,-5,O=C(Cc1ccccc1)N[C@H](c1ccccc1)P(=O)(O)CO,-3.1,.,0.5
0.71,7,-0.2,4,COc1ccccc1C1CC(c2ccc(Cl)cc2)Nc2nc(N)nn21 (centres undefined),1.7,.,3.2
0.71,3,4.3,-4,CCCN(CCO)Cc1cccc(Cl)c1,1.0,i,-1.3
0.69,12,-1.9,-13,O=C(NCc1ccco1)/C(=C/c1ccc(F)cc1)NC(=O)c1ccccc1,-3.1,i,0.1
0.67,7,-2.3,0,O=C(Oc1ccccc1C(=S)N1CCOCC1)c1ccccc1,-1.3,i,1.6
0.74,2,-3.9,-4,COc1ccc(/C=C(/C(=O)Nc2ccccc2C(=O)NC(C)C)c2ccccc2)cc1,-1.1,.,1.1
0.69,-24,-2.0,?,Cc1nc(Nc2ccncc2)c2oc3ccccc3c2n1,3.0,i,-44
0.6,-3,1.7,4,Cc1ccc2nc(CCc3nc4ccc(C)cc4[nH]3)[nH]c2c1,1.7,i,-0.9
0.67,2,-1.5,-3,CC(=O)Nc1nc(C(=O)Nc2c(C)n[nH]c2C)cs1,-3.8,.,0.8
0.69,6,4.3,-26,Cc1c(OCC(=O)NCC(O)c2ccccc2)ccc2c(-c3ccccc3)cc(=O)oc12 (centres undefined),-4.8,i,-1.3
.,-4,0.7,-5,C/C(=N\NC(=O)Cn1ccc(C(F)(F)F)n1)c1ccco1,-1.4,i,.
0.68,1,.,.,Cc1cccc(-n2c(=O)c3c4c(sc3n3c(=S)[nH]nc23)CCC4)c1,1.7,i,3.8
0.59,-2,-0.1,-6,COc1ccccc1CC(=O)N1CCN(c2cccc(Cl)c2)CC1,1.3,i,5.8
0.69,1,-4.6,-3,C=CCC(O)c1c(-c2ccccc2)nn(C)c1Cl (centres undefined),-0.3,.,3.0
0.68,-12,3.2,-5,CCCCN1C(=O)C(=O)N(CC(=O)c2cc(C)n(-c3cc(C)on3)c2C)C1=O,-1.0,i,-1.7
0.64,2,-2.5,-6,CC(C)CCN1CCC(Cc2ccccc2)(NC(=O)c2ccccc2)C1=O (centres undefined),0.0,i,1.3
0.66,-9,1.2,-8,O=C(NN1CCOCC1)C12CC3CC(CC(C3)C1)C2,1.6,.,1.6
0.68,-1,1.8,48,O=C(c1ccc(CNS(=O)(=O)c2ccccc2)cc1)N1CCN(Cc2ccccc2)CC1,-3.7,.,-0.2
0.68,-3,-1.7,-6,COc1ccc(N(C)C(=O)C2CCCN2S(=O)(=O)c2cccc3nsnc23)cc1 (centres undefined),-0.1,i,3.8
0.69,-3,8.8,-3,Cc1nn(-c2ccccc2)c(C)c1NC(=O)COc1ccc(C#N)cc1,0.7,i,2.3
0.74,0,-29,-2,Cc1occc1-c1nnc(SCC(=O)N2CC(=O)Nc3ccccc32)n1CC(C)C,4.2,.,-0.6
0.67,-5,3.2,7,CC1(C)Cc2c(sc(NC(=O)C(=O)N3CCCCC3)c2C(N)=O)CO1,-1.4,i,2.1
0.66,-4,-0.4,-2,Cc1ccccc1OCCC(=O)OCC(=O)NC(=O)c1ccccc1,12,i,0.1
0.69,10,-2.4,55,CC(=O)Nc1cccc(NC(=S)Nc2cccc3ccccc23)c1,4.6,i,0.0
0.68,-9,0.5,-6,CCCC(=O)c1cc2c(cc1NC(=O)CC)OCCO2,1.7,i,-18
0.71,0,-0.1,-17,COc1ccc(OCc2cc(-c3ccc(Cl)cc3)no2)cc1,1.2,i,0.9
0.68,0,-1.2,-3,COC(=O)C1=C(SC)N(c2ccc(OC)cc2)C(c2ccccc2)CC1=O (centres undefined),-2.4,i,3.1
0.7,-1,.,.,CC1CC(C)CN(C(=O)c2cccc(S(=O)(=O)N3c4ccccc4CC3C)c2)C1 (centres undefined),-1.0,i,1.5
0.76,-1,-3.1,-15,O=C(CCc1c[nH]c2ccccc12)NCc1ccc2c(c1)OCO2,2.1,.,1.0
0.7,-3,6.9,-4,Nn1cnnc1SCC(=O)Nc1ccc2c(c1)OCCO2,-0.1,i,1.2
0.73,38,8.2,-11,CCCOc1ccc(/C=C2\SC(=S)N(CC3CCCO3)C2=O)cc1 (centres undefined),-1.3,.,5.0
0.72,-7,0.3,34,CC(C)CNC(=S)Nc1ccc(F)cc1,-4.8,i,-0.4
0.7,-1,2.8,-6,COC(=O)C1SCC2C(=O)N(Cc3ccc(Cl)c(Cl)c3)CC(=O)N21 (centres undefined),0.3,i,29*
0.73,-2,4.4,3,CC1CCN(c2ccc(NC(=O)c3ccc(Br)o3)cc2)CC1,4.5,i,-2.2
.,2,0.3,-1,C/C(=N/NC(=O)CN1CCN(Cc2ccccc2Cl)CC1)c1cccnc1,0.4,i,.
0.64,-5,-0.7,.,CCn1c(SCC(=O)NC(C)(C)C)nnc1-c1ccncc1,-1.1,i,0.3
0.67,1,-0.8,-1,COc1ccc(NC2=CC(c3ccc(OC)cc3)N(c3ccc(OC)cc3)C2=O)cc1 (centres undefined),-0.2,i,-6.5
0.7,0,-2.2,-6,Cc1ccc(NC(=O)Cc2c(F)cccc2Cl)cc1S(=O)(=O)N1CCOCC1,3.3,i,6.5
0.7,-9,-2.2,5,CN1CCN(c2nc(-c3ccc(Cl)cc3)cc(=O)[nH]2)CC1,-1.8,i,1.0
0.69,2,6.8,0,Cc1ccc(C(O)c2ccncc2)cc1 (centres undefined),-0.9,i,-1.6
0.71,-11,14*,-7,O=C(NCCc1ccccc1)C1CCN(c2nc3ccccc3o2)CC1,-4.1,i,1.9
0.74,1,2.6,41,O=C(COc1ccc(S(=O)(=O)N2CCCC2)cc1Cl)NC1CCCC1,4.0,.,1.8
0.72,-9,-2.9,-1,COc1ccc(CCNC(=O)CCCCn2c(=O)[nH]c3ccccc3c2=O)cc1OC,-2.5,.,0.0
.,-7,-4.4,5,COc1cc(/C=N/N=C2/NC(=O)C(CC(=O)O)S2)ccc1OCc1ccc(Cl)cc1 (centres undefined),-0.9,.,.
0.73,-4,2.0,-20,Cc1ccc(C(=O)N2CCN(c3ccc(C(F)(F)F)cn3)CC2)c(C)c1,2.2,.,2.0
0.7,-3,5.4,-4,CC(=O)c1ccc(Oc2cc(C(F)(F)F)cnc2C(N)=O)cc1,1.8,.,-2.7
0.65,3,-2.7,52,COCCCNC(=S)NCCNc1nc2cc(C)cc(C)c2cc1C#N,-4.2,i,-45
0.72,-6,0.8,-3,COc1ccc(-c2noc(-c3ccccc3F)n2)cc1,0.7,i,4.1
.,3,-0.8,-6,CCN(CC)C(=O)C1CCCN(c2ccc([N+](=O)[O-])cc2/C=N/NC(=O)c2cccc(O)c2)C1 (centres undefined),2.0,.,.
.,-5,0.6,3,CNC(=O)C1CC(=O)N/C(=N/N=C(\C)c2cccs2)S1 (centres undefined),1.9,.,.
0.69,10,-5.2,-2,COc1cc(C(O)P(=O)(OC(C)C)OC(C)C)cc(OC)c1OC (centres undefined),-4.6,.,3.7
.,-4,-1.8,0,CC(C)CCN=CC1=C(O)CC(c2ccccc2)CC1=O (centres undefined),0.2,i,.
0.68,4,7.1,89*,COc1cccc(N2CCN(Cc3nnnn3C3CCCCC3)CC2)c1,-3.0,i,-2.3

Just Ecoli growth and ALR H2O2 inh, for 4 of the compounds above:
SMILES,Ecoli growth,ALR H2O2 inh
COc1ccc(NC2=CC(c3ccc(OC)cc3)N(c3ccc(OC)cc3)C2=O)cc1 (centres undefined),0.67,-1
Cc1ccc(NC(=O)Cc2c(F)cccc2Cl)cc1S(=O)(=O)N1CCOCC1,0.7,-6
CN1CCN(c2nc(-c3ccc(Cl)cc3)cc(=O)[nH]2)CC1,0.7,5
Cc1ccc(C(O)c2ccncc2)cc1 (centres undefined),0.69,0

(listing goes on)
Ecoli growth,B2AR ag,LANA-H2B inh,ALR H2O2 inh,molecule,HNF4A DNA FP,FGF22 binding,UCH37 inh
.,-7,.,.,CC(=O)N/C(=N\c1nc(C)cc(C)n1)Nc1ccccc1Cl,3.4,i,.
0.71,-12,5.0,-37,CCC(C)(C(=O)NC1CCCCC1)N(CC1CCCO1)C(=O)CNC(=O)c1ccccc1 (centres undefined),-2.7,.,6.8
0.69,-1,-1.5,0,CCN(CC)C(=O)CSc1nnc(-c2cccs2)n1Cc1ccco1,1.1,.,1.8
0.63,-9,3.3,-5,O=C(CCn1nc(-c2ccccc2)ccc1=O)N1CCCC1,0.3,i,-0.8
.,5,0.6,1,Cc1c(C)c2ccc(OCC(=O)Nc3ccccn3)c(C)c2oc1=O,-0.6,i,.
0.65,6,1.8,.,COc1cc2ncnc(NCc3cccs3)c2cc1OC,-0.2,i,0.0
0.64,0,5.2,-4,CCCCNC(=O)C1CCCN1S(=O)(=O)c1cccc2nsnc12 (centres undefined),4.2,i,-0.1
0.68,3,3.9,-3,O=C(O)C1CCN(C(=O)Cc2ccccc2)CC1,0.2,i,-0.9
0.79,14,-0.9,-4,COc1cccc(-c2nn(-c3ccccc3)cc2/C=C\C(=O)c2cccs2)c1,2.4,.,0.4
0.69,1,-9.1,-13,COc1ccc(NS(=O)(=O)c2ccc3c(c2)NC(=O)CCS3)cc1Cl,-4.0,i,5.9
0.73,12,-1.3,-6,Cc1ccc(C)c(N2CCN(C(=O)Cc3cn(C)c4ccccc34)CC2)c1,4.1,.,-1.5
0.71,-1,-0.9,-7,Cc1cccc(C(=O)NCC2CCN(C(=O)c3cccc(C)c3)CC2)c1,-0.7,i,-1.8
0.64,-179,-4.7,70,COc1cc(/C=C(\C#N)c2nc3c(s2)CC(C)CC3)ccc1O (centres undefined),74*,.,-2.4
0.7,6,3.7,-23,CC(NC(=O)c1ccc(=O)oc1)c1ccccc1 (centres undefined),-2.4,.,4.5
0.69,-4,0.4,-8,N#Cc1cc([N+](=O)[O-])ccc1NC(=O)COC(=O)c1cnccn1,0.7,i,6.2
0.6,1,3.4,-8,Cc1ccc(Oc2ccc(NC(=O)CSc3n[nH]c(N)n3)cc2)cc1,-0.7,.,0.8
0.72,5,4.9,-17,O=C(CNC(=O)c1cccs1)OCC(=O)c1ccc(Br)cc1,2.0,i,3.2
0.6,5,2.0,92*,NCCCCCc1nnc(SCC(=O)Nc2cccc(Cl)c2)o1,3.5,.,3.1
0.65,1,-1.7,-1,Cc1cccc(N2CCN(C(C)C(=O)N3CCc4ccccc43)CC2)c1C (centres undefined),2.9,i,-0.2

Whole records, quoted from the list. Screens in order: Ecoli growth, B2AR ag, LANA-H2B inh, ALR H2O2 inh, HNF4A DNA FP, FGF22 binding, UCH37 inh
Listed for NCCCCCc1nnc(SCC(=O)Nc2cccc(Cl)c2)o1 : 0.6, 5, 2.0, 92*, 3.5, ., 3.1
Listed for Cc1ccc(Oc2ccc(NC(=O)CSc3n[nH]c(N)n3)cc2)cc1 : 0.6, 1, 3.4, -8, -0.7, ., 0.8
Listed for Cc1cccc(N2CCN(C(C)C(=O)N3CCc4ccccc43)CC2)c1C (centres undefined) : 0.65, 1, -1.7, -1, 2.9, i, -0.2
Listed for O=C(CNC(=O)c1cccs1)OCC(=O)c1ccc(Br)cc1 : 0.72, 5, 4.9, -17, 2.0, i, 3.2

From PubChem BioAssay
